# Screens from PubChem.
# miR-21 FLuc: raises the signal of a miR-21 reporter; HeLa miR-21 FLuc reporter, luciferase, 48 h; Potency, µM (highest dose often 38.3 µM), for inactives: top-dose reporter change, positive = more light; 340,000 tested, under 10 active; active = well fitted rising curve with a large enough effect; inconclusive = small, poorly fitted or top-dose-only effect; inactive = no such curve, though single readings can be large or run the other way;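 note: % of control where 0% means no effect; miR-21 action dims this reporter so a rising signal means less miR-21 action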
#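 Using DMEM plus 10% FBS, HeLa miR-21-FLuc cells are incubated with test compounds (final up to about 40uM) for 48 hours; firefly luciferase signal is then imaged following reagent-mediated lysis.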
# Rango complex inh: prevents formation of the Rango-importin beta complex; Q14974; Rango CFP/YFP FRET sensor + importin beta, 45 min; Potency, µM (doses to about 92.2 µM), for inactives: top-dose inhibition of complex formation; 340,000 compounds, 0.031% hits; active = rising FRET ratio curve, often small or poorly fitted; inconclusive = mostly compound fluorescence or quenching in the first reads; inactive = flat curves in all reads;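 note: potency is the fitted concentration of half-maximal effect; 0% = DMSO wells and 100% = buffer wells lacking importin beta; nearly all actives have a fitted effect of over 15% in size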
# Target sequence (Q14974 whole entry, looked up): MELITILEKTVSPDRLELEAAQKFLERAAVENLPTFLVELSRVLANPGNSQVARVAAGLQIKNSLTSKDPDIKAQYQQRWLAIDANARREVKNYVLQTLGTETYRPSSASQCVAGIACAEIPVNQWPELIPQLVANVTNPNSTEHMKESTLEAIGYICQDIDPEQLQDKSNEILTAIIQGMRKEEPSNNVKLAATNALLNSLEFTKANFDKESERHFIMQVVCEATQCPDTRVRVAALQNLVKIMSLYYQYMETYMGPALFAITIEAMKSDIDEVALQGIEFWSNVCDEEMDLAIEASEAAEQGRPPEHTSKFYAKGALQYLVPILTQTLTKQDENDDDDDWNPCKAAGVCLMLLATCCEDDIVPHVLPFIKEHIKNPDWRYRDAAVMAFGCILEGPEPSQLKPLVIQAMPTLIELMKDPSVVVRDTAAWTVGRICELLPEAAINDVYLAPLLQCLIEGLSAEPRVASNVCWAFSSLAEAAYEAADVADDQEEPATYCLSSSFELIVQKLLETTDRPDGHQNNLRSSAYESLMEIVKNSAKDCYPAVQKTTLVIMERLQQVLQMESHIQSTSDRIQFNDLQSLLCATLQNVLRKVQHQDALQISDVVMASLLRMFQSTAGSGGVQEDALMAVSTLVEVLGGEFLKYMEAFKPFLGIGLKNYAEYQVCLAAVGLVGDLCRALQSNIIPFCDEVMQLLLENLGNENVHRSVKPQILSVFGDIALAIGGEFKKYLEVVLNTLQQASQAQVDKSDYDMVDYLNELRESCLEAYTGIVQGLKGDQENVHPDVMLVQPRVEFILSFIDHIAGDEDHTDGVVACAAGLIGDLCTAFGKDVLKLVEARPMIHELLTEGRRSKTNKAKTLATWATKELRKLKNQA
#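 FRET biosensor (snurportin 1 IBB flanked by EYFP and cerulean), 50 nM, with compound 5 min, then 0.125 microM importin beta in PBS, 1 mM DTT, 0.02% Tween-20, 0.1% BSA. CFP/YFP ratio read after 45 min at room temperature; pre-read flags interference.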
# GLA inh pH 4.5: alpha-galactosidase A (human) inhibition, pH 4.5; activity change, negative = inhibition, % at 105 µM; P06280; 230,000 tested, under 10 active; AID 1467; purified enzyme, 4-MU-alpha-Gal fluorescence, pH 4.5; inconclusive = small, poorly fitted or top-dose-only inhibition, or a rising curve; inactive = flat fitted curve, though single readings scatter; no compound was filed as active;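 note: 0% = full activity with enzyme and -100% = basal without enzyme; dose as in the result columns while the protocol names 77 µM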
# Rango release inh: inhibition of RanGTP-driven Rango-importin beta dissociation; Biochemical FRET Rango-importin beta, RanGTP-induced dissociation; O95149+P62826; 340,000 compounds, 0.071% hits; Potency, µM (top dose mostly 46.1 µM), for the others: top-dose activity change, negative = inhibition; active means falling FRET ratio curve, often poorly fitted, with flat reads before Ran was added; inconclusive means other falling curves, or compound fluorescence or quenching; inactive means flat or rising ratio curve;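 note: potency is the fitted concentration of half-maximal effect; % of control where 0% means no effect; nearly all actives have a fitted effect of over 45% in size; -100% = wells without RanGTP and RCC1; the record marks most hits as doubtful in a second field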
#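 Compounds preincubate 5 min with complex of recombinant Rango and importin beta in PBS with 1 mM DTT. Ran (0.6 uM) loaded with 2 mM GTP plus 0.2 uM RCC1 starts dissociation; FRET is recorded 45 min later.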
# The depositor's hits bear a star; ? = inconclusive; . = not tested or not shown; & = joins results of further samples.
SMILES,miR-21 FLuc,Rango complex inh,GLA inh pH 4.5,Rango release inh
CC1(c2ccccc2)CC(C)(C)N2C(=O)C3(C(C#N)=C(N)Oc4cc(O)ccc43)c3cccc1c32 (centres undefined),20%,0.4%,-7,7%
Clc1ccc(Sc2ccc(/C=N/n3cnnc3)o2)cc1,-11%,-0.5%,7,1%
CCOC(=O)CNC(=O)C(Cc1ccccc1)NS(=O)(=O)c1cccs1 (centres undefined),-6%,-0.3%,-6,-4%
Cc1cc(C)nc(N2C(=O)CC(C(C)c3ccccc3)C2=O)n1 (centres undefined),-3%,10%,-3,16%
Cc1ccc(F)cc1N=Cc1c(O)c2ccccc2oc1=O,-1%,1.3%,.,-17%
COc1ccc(N(C(=O)CNS(=O)(=O)c2ccccc2)C(C(=O)NCc2ccco2)C(C)C)cc1 (centres undefined),-2%,0.6%,6,-2%
Cc1ccccc1NC(=O)Cn1c(=O)sc2ccccc21,1%,0.2%,-3,0%
O=C(Cc1ccc(NC(=O)C2CCCN(C(=O)C3CCC3)C2)cc1)Nc1ccc(C(=O)N2CCOCC2)cc1 (centres undefined),.,0.3%,.,-3%
On1c(-c2ccccc2)nc2ccccc21,-22%,-0.6%,2,-10%
Cc1ccccc1-c1nnn(Cc2ccc(F)cc2Cl)n1,-46%,-3.6%,.,-12%
CCCc1nnc(NC(=S)Nc2ccccc2)s1,-39%,-5.7%,-1,-6%
CN1C[C@@H]2C(c3ccccc3)C3(c4cccnc4)CC2(C3)[C@H]1c1ccccc1 (some centres undefined),4%,-0.5%,0&-12,-5%
CCN1C(=O)/C(=C2\SC(N3CCCCC3)=NC2=O)c2ccccc21,-38%,0.0%,1,6%
Cc1cc(C)c(C#N)c(SCc2ccc([N+](=O)[O-])cc2)n1,0%,-0.3%,3,9%
Cc1ccc2c(c1)nnn2C1CCN(CC(=O)Nc2ccc3c(c2)OCCO3)CC1,3%,0.8%,-3,2%
COc1cc(SC)ccc1C(=O)NCC1CCCO1 (centres undefined),-31%,3.6%,4,4%
CCOC(=O)CNC(=S)n1cnc(N)n1,-2%,-0.8%,-4,1%
Cc1ccc(N=Cc2c(O)[nH]c3ccccc23)c([N+](=O)[O-])c1,-58%,0.3%,-10,1%
OCC[C@H]1C[C@H](O)[C@@H](O)[C@@]2(OCCCc3ccccc32)O1,.,3.5%,.,-10%
COc1ccc(OC[C@@H](O)CNC(=O)c2cccc3c2C(=O)c2ccc(Cl)cc2S3(=O)=O)cc1,.,1.9%,.,-20%
Cc1cccc(C)c1NC(=O)c1ccc(-n2cnnn2)cc1,-7%,0.1%,-18,-2%
O=C(/C=C/Nc1ccc(Br)cc1F)c1ccco1,23%,?,0,?
CC/C=C/C(=O)N1CC2(CC(c3cccc(NC(=O)CC(c4ccccc4)c4ccccc4)c3)=NO2)C[C@@H]1C(N)=O (some centres undefined),20%,2.7%,-24,4%
O=[N+]([O-])c1cc(Cc2ccccc2)cc(C=Nc2ccc(N3CCOCC3)cc2)c1O,-4%,2.0%,-16,7%
CCN(C(=O)COC(=O)c1ncc(Cl)c(Cl)c1Cl)c1c(N)n(Cc2ccccc2)c(=O)[nH]c1=O,.,-0.5%,.,8%
Cn1nc(-c2ccccc2)c(COC(=O)c2cccc(Cl)c2)c1S(=O)(=O)c1ccccc1,3%,-2.5%,-3,2%
CCc1c(C)c(C#N)c2nc3ccccc3n2c1NCCOC,1%,?,.,?
O=C(CCCCCN1C(=O)[C@@H]2Cc3ccccc3CN2C1=O)Nc1ccccc1Cl,-9%,0.0%,.,0%
Cn1cnnc1SCc1ccc(-c2ccc(Br)cc2)o1,-28%,-3.4%,-5,-14%
COc1ccc(C(CC(=O)O)c2ccc3c(c2)OCO3)cc1 (centres undefined),-2%,3.7%,.,35%
C=CCn1c(CSc2nc3ccccc3s2)nnc1SCC(=O)NCc1cccnc1,-1%,10.0%,-6,20%
CCS(=O)(=O)N1CCC(c2nc(-c3ccc(C(F)(F)F)cc3)no2)CC1,0%,0.0%,10,-15%
CCOC(=O)C1=CC[C@H]2c3c(c4ccccc4n3C)C[C@H]1N2C,.,-1.5%,.,-8%
CC(C)N(Cc1cn[nH]c1-c1ccc(-c2ccccc2)cc1)Cc1nccn1C,-2%,-0.2%,-11,-8%
Clc1cccc(Cn2ncc3ccccc32)c1,-10%,3.2%,.,8%
CC1CCCCN1C(=O)C1CC(c2ccc(F)cc2)=NO1 (centres undefined),-45%,7.5%,-2,8%
CCOC(=O)c1c(/N=C/C2C(=O)CC(C)(C)CC2=O)sc(C)c1C,0%,?,0,?
O=C(N/N=C\c1cc(Br)c(Br)o1)c1cncc(Br)c1,-3%,6.3%,-12,-9%
O=C(c1c(F)c(F)c(F)c(F)c1F)N1CCc2ccccc21,.,2.5%,.,1%
O=[N+]([O-])c1ccc(COc2cccc(CN3CCCC3)c2)cc1,.,-4.0%,.,-16%
Cc1cc(NC2CCCCC2)n2c(n1)nc1ccccc12,-2%,1.3%,17,32%
Cc1ccc(S(=O)(=O)N2CCNC(=O)C2)c(C)c1,.,4.2%,.,10%
Cc1ccc(NC(=O)CCC(=O)NNC(=O)COc2ccccc2)cc1C,-16%,-0.7%,3,0%
CC(Nc1ccnc2cc(Cl)ccc12)c1ccc(S(N)(=O)=O)cc1 (centres undefined),-1%,?,.,-9%
N#Cc1c(N)n(CCCN2CCOCC2)c2nc3ccccc3nc12,-7%,?,?,?
Cc1cc(C)nc(SCc2ccc3nonc3c2)n1,-25%,?,7,-5%
COc1ccc(CNC(=O)COc2cc(O)c3c(c2)OC(C)(C)CC3=O)c(OC)c1,1%,0.1%,.,1%
CSCCC(NC(=O)c1ccc(C(C)(C)C)cc1)C(=O)OCC(=O)N1CCCC1=O (centres undefined),.,-0.1%,.,-4%
O=[N+]([O-])c1cccc(/C=C/C=N/Nc2nc(N3CCCCC3)nc(N3CCCCC3)n2)c1,1%,2.1%,-4,0%
Cc1cc(NC(=O)c2cccc(S(=O)(=O)Nc3cccc(C(=O)O)c3)c2)no1,0%,-3.1%,.,11%
O=CN1CCN(c2c([N+](=O)[O-])c(=O)oc3ccccc23)CC1,-1%,0.1%,.,0%
Cc1ccc(C)c(N2CCN(C(=O)c3ccc4nc(-c5ccco5)c(-c5ccco5)nc4c3)CC2)c1,11%,?,-13,?
COc1cc2oc(=O)c(Br)c(C)c2c(OC)c1OC,-25%,-2.0%,8,-5%
COc1ccc(OC)c(CNc2ccc3c(c2)nc(C)n3C)c1,-17%,-2.8%,.,?
CCOc1ccc(NS(=O)(=O)c2ccc(C(=O)N3CCC3)cc2)cc1,.,8.8%,.,-4%
Cn1c(SCC(=O)Nc2ccc(N3CCOCC3)cc2)nnc1C1CC1,.,-1.1%,.,10%
CN1C(=O)C(CC(=O)Nc2ccc(F)cc2)N(CCCc2ccccc2)C1=S (centres undefined),13%,2.5%,-18,22%
O=C(NC1CCCCC1)NC1(C(=O)NCCCN2CCOCC2)CCCCC1,1%,-0.5%,-1,4%
COc1nc(OC)nc(N2CCCCCC2)n1,-6%,-1.0%,4,5%
CN(CC(=O)Nc1ccccc1C(F)(F)F)C(=O)CSc1nnc(-c2ccncc2)n1C,.,-0.5%,.,11%

# Some of these compounds in order of count of non-hydrogen atoms, high to low.
SMILES,miR-21 FLuc,Rango complex inh,GLA inh pH 4.5,Rango release inh
COc1ccc(CNC(=O)COc2cc(O)c3c(c2)OC(C)(C)CC3=O)c(OC)c1,1%,0.1%,.,1%
Cc1cc(NC(=O)c2cccc(S(=O)(=O)Nc3cccc(C(=O)O)c3)c2)no1,0%,-3.1%,.,11%
COc1ccc(OC)c(CNc2ccc3c(c2)nc(C)n3C)c1,-17%,-2.8%,.,?
COc1nc(OC)nc(N2CCCCCC2)n1,-6%,-1.0%,4,5%

# The results go on.
SMILES,miR-21 FLuc,Rango complex inh,GLA inh pH 4.5,Rango release inh
CC(C)C(NS(=O)(=O)c1cccs1)C(=O)NCc1ccccc1Cl (centres undefined),1%,0.0%,6,0%
CC(=O)c1cccc(S(=O)(=O)N2CCN(CCOc3ccccc3)CC2)c1,.,2.7%,.,39%
COc1ccc(C(=O)N[C@H](C(=O)NCc2ccco2)C(C)C)cc1,3%,-1.7%,3,0%
Oc1ccc(C2Nc3cccc4cccc(c34)N2)cc1,0%,0.4%,.,15%
COc1ccccc1N1CC(O)=C(c2nc3ccccc3s2)C1=N,2%,0.8%,-2,3%
CCn1c(Cc2ccccc2)nnc1SCC(=O)Nc1nnc(-c2ccccc2)s1,-3%,1.2%,0,-7%
COc1ccc(-c2[nH]nc3c2C(c2ccc(OC(=O)N4CCOCC4)cc2)C(C#N)=C(N)O3)cc1 (centres undefined),2%,3.2%,4,-7%
CCC(C)NC(=O)CSC1=Nc2ccccc2C2=NC(CC(=O)NCc3ccccc3)C(=O)N12 (centres undefined),-3%,?,6,10%
O=C(Cc1ccsc1)NNC(=O)c1ccccc1O,.,3.4%,.,2%
CCCOc1ccc(N2C(=O)CC(NNC(=O)c3ccc(COc4ccccc4)o3)C2=O)cc1 (centres undefined),-7%,-0.1%,3,-5%
COc1ccccc1-c1cc2nc(C)c(CCC(=O)NCc3ccc(F)cc3)c(C)n2n1,18%,4.3%,15,?
COc1ccc(/C=C2\SC(=O)N(CC(=O)NCCCn3ccnc3)C2=O)cc1,-22%,0.8%,.,14%
COc1cccc(CN2CC(C(=O)NCCOc3ccccc3)CCC2=O)c1 (centres undefined),-5%,-0.1%,.,-5%
O=C(O)CSc1nnc(-c2ccncc2)n1Cc1ccccc1,1%,6.3%,8,-12%
Cc1ccc(C)c(OCCC(=O)OCC(=O)N2CCN(c3ccccc3)CC2)c1,2%,3.7%,.,23%

# Five entries from above, set out differently.
# Values run as follows: miR-21 FLuc | Rango complex inh | GLA inh pH 4.5 | Rango release inh
CCC(C)NC(=O)CSC1=Nc2ccccc2C2=NC(CC(=O)NCc3ccccc3)C(=O)N12 (centres undefined)
 : -3% | ? | 6 | 10%
O=C(Cc1ccsc1)NNC(=O)c1ccccc1O
 : . | 3.4% | . | 2%
CCCOc1ccc(N2C(=O)CC(NNC(=O)c3ccc(COc4ccccc4)o3)C2=O)cc1 (centres undefined)
 : -7% | -0.1% | 3 | -5%
COc1ccccc1-c1cc2nc(C)c(CCC(=O)NCc3ccc(F)cc3)c(C)n2n1
 : 18% | 4.3% | 15 | ?
COc1ccc(/C=C2\SC(=O)N(CC(=O)NCCCn3ccnc3)C2=O)cc1
 : -22% | 0.8% | . | 14%

# The listing continues.
SMILES,miR-21 FLuc,Rango complex inh,GLA inh pH 4.5,Rango release inh
CC1(C)CC(=O)C(=CN2CCOCC2)C(=O)C1,3%,-3.8%,-3,?
CC(=O)Nc1cccc(NC(=O)COc2ccc3c(c2)CCC3)c1,.,-0.8%,.,3%
Cc1[nH]n2c(=O)c3c(nc2c1-c1ccc(F)cc1)CCCC3,1%,0.4%,3,17%
CC(=O)c1cccc(NC(=O)NC2CCCCCCC2)c1,-30%,-3.6%,.,-2%
CCc1cccc(CC)c1NC(=O)COC(=O)c1ccc(F)c(S(=O)(=O)N(CC)CC)c1,0%,0.8%,-8,-7%
C/C(=N\NC(=O)c1ccccc1O)c1ccc(Br)s1,-17%,0.0%,9,1%
Cc1cc(C)c2c(N)c(C(=O)Nc3ccc(C)c(C)c3)sc2n1,-49%,?,.,?
Cc1ccc(NC(=O)C(NC2CCCc3ccccc32)c2ccccc2)c([N+](=O)[O-])c1 (centres undefined),-24%,-2.3%,-2,3%
Cc1cccc(N(CC(=O)NC2CCCCC2)C(=O)Cn2nnc(-c3ccc(C)o3)n2)c1,0%,-0.3%,-8,4%
COC(=O)c1ccc(CSc2ccc3nnc(-c4ccc(F)cc4)n3n2)o1,-14%,0.0%,5,5%
O=C(NNC(=S)Nc1ccccc1Cl)c1ccccc1Cl,10%,-4.1%,.,5%
COc1ccc(C(=O)NC(=S)NCCO)cc1Br,-28%,2.2%,2,-3%
C=CCOC(=O)CCC(=O)Nc1cc(OC)nc(OC)n1,-10%,1.7%,0,2%
CN(c1ccccc1)S(=O)(=O)c1cccc(C(=O)NCCc2c[nH]c3ccccc23)c1,.,-0.9%,.,?
CCCC(=O)C1=C(O)C(C(=O)OC)C(C)(C)CC1=N (centres undefined),-2%,-1.1%,-5,-10%
Cc1cc(N/C=C\c2nnnn2-c2ccccc2)no1,-13%,2.3%,7,-2%

# Some of the compounds tested; rates above refer to the full screens.
